D1 agonist: Allosteric Agonists of the Human D1 Dopamine Receptor: qHTS; HEK293 T-REx D1 cells, calcium flux, agonist mode; activation, % at 2 µM; 360,000 tested, 1% active; AID 504660, 2011; note: 0% is about no effect
Target sequence (P21728 whole entry, looked up): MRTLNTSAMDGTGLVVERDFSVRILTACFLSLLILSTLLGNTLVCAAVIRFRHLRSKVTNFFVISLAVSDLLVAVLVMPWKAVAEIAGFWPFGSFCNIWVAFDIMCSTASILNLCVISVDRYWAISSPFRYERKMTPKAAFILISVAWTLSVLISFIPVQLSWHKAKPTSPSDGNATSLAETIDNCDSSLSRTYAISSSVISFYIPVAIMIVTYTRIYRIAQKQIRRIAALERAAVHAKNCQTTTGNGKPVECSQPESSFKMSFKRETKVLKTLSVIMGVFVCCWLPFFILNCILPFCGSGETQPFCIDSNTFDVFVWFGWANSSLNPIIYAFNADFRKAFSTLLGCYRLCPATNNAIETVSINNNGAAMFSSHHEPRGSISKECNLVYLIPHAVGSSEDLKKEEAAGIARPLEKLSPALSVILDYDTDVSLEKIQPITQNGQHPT
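Inducible HEK293 T-REx D1 cells, force-coupled to calcium signalling, were plated at 4000 cells/well with tetracycline and held overnight at 30 C. After no-wash calcium dye loading, compound-evoked calcium rise over 180 s flagged agonists.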
TRHR agonist: qHTS for Small Molecule Agonists and Allosteric Enhancers of Human TRH Receptor: Primary Screen for Agonists; AID 493084, 2011; TRHR cells, calcium flux fluo-8, FDSS agonist mode; activation, % at 2 µM; 360,000 tested, 0.18% active; note: 0% is about no effect
Target sequence (P34981 whole entry, looked up): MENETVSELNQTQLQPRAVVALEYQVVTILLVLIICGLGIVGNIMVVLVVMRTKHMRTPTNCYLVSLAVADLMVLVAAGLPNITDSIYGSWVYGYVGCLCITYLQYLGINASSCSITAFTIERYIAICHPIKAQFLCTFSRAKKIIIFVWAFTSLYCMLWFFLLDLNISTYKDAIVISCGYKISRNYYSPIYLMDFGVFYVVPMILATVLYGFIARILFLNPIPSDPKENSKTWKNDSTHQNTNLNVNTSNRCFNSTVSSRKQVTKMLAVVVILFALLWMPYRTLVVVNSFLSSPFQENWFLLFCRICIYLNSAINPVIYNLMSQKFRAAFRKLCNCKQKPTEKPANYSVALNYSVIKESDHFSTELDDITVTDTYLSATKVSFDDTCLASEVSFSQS
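TRHR-expressing cells loaded with fluo-8 calcium dye; 23 nL library compound pin-transferred, kinetic FDSS fluorescence (Ex 480/Em 530) recorded about 180 s for agonist-induced calcium release, before a 10 nM TRH EC20 addition for potentiator mode.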
D2 antag: HTS Assay for Allosteric Antagonists of the Human D2 Dopamine Receptor: Primary Screen for Antagonists | D(2) dopamine receptor (Homo sapiens), P14416 | HEK293 TREx D2 cells, calcium flux, dopamine EC80 | inhibition, % at 10 µM | 340,000 tested, 2% active; in the data active = inhibition above about 30%; note: 0% is about no effect
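Read-out: kinetic calcium fluorescence (1 cycle/s) in inducible HEK293 T-REx D2 cells after an EC80 dopamine addition that followed 180 s compound preincubation. Loss of the dopamine response indicates antagonism.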
D1 potentiator: Potentiators of Human D1 Dopamine Receptor: qHTS | D(1A) dopamine receptor (Homo sapiens), P21728 | HEK293 TREx D1 cells, calcium flux, dopamine EC20 potentiation | potentiation, % at 10 µM | 360,000 tested, 0.036% active | AID 504651, 2011; in the data active = potentiation above about 30%; note: 0% is about no effect
D1 antag: Antagonist of Human D 1 Dopamine Receptor: qHTS; 360,000 tested, 3.2% active; activity change, negative = inhibition, % at 10 µM; HEK293 TREx D1 cells, calcium flux, dopamine EC80; active compounds read low; in the data active = activity change below about -30%; note: % is set by controls: 0 for no effect and ±100 for the full control effect
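Inducible Hek293 Trex D1 cells (tetracycline, overnight, 30 C). Calcium dye 30–90 min RT. Antagonist mode: EC80 dopamine added after 180 s compound read.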
TRHR PAM: qHTS for Small Molecule Agonists and Allosteric Enhancers of Human TRH Receptor: Primary Screen for Enhancers | TRHR cells, fluo-8 calcium fluorescence, EC20 TRH enhancement | enhancement, % at 2 µM | 360,000 tested, 0.66% active | AID 493056, 2011; in the data active = enhancement above about 30%; note: 0% is about no effect
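Enhancer read-out: after compound pinning and an initial kinetic agonist-mode read, an EC20 of TRH (10 nM final) was injected and fluo-8 calcium signal (Ex 480/Em 530) followed at 1 s/cycle for 100 cycles in TRHR-expressing cells.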
D2 potentiator: HTS Assay for Positive Allosteric Modulators of the Human D2 Dopamine Receptor: Primary Screen for Potentiators; HEK293 T-REx D2, calcium flux, EC20 dopamine potentiation; potentiation, % at 10 µM; 340,000 tested, 0.34% active; AID 485347, 2010;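 active = potentiation over 3 SD above the plate norm, cut at about 30% in these data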; note: 0% is about no effect
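Tetracycline-induced Hek293 Trex D2 cells, force-coupled to calcium, loaded with no-wash calcium dye. Compound added with 180 s kinetic read for agonism, then EC20 dopamine and a further 180 s read for potentiation.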
D2 agonist: HTS Assay for Allosteric Agonists of the Human D2 Dopamine Receptor: Primary Screen for Agonists; HEK293 T-REx D2 cells, calcium flux agonist mode; activation, % at 2 µM; 340,000 tested, 0.53% active; AID 485358, 2010;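 active = activation over 3 SD above normal in the single-dose calcium agonist read, cut at about 30% in these data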; note: 0% is about no effect
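HEK293 Trex D2 cells, tetracycline-induced, o/n 30 C 5% CO2; no-wash Ca dye, RT 30–90 min; 10-cycle baseline, 23 nl cpd added, kinetic Ca read 180 s; agonist hits = positive Ca response.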
Active calls of the source: *; . = not tested or not shown. Cut-off read from the data, not from the text of the source, unless noted: active = activation above about 30%; inactive = the rest.

SMILES	D1 agonist	TRHR agonist	D2 antag	D1 potentiator	D1 antag	TRHR PAM	D2 potentiator	D2 agonist
COc1cccc(C2C(C(=O)c3cc4ccccc4o3)=C(O)C(=O)N2c2cc(C)on2)c1 (stereo not drawn)	3	0.7	-25	-1	-11	19	4	-1.7
CCc1cc2c(cc3c(=O)n(CC(=O)NCCCN4CC(C)CC(C)C4)ncn32)s1 (stereo not drawn)	1	-0.7	-11	-2	17	7	15	0.1
O=C(Nc1ccc2oc(=O)ccc2c1)c1cccnc1Cl	1	0.3	-2	-6	-4	3	-4	-0.1
O=C(O)c1cc(C(=O)O)cc(-c2ccc(/C=c3/sc4nc5ccccc5n4c3=O)o2)c1	4	2.1	0	2	11	-4	8	-1.0
COc1ccc(/C(O)=C2/C(=O)C(=O)N(c3ccccn3)C2c2cccc(Cl)c2)cc1 (stereo not drawn)	4	-0.2	-11	-9	-8	16	2	-1.8
Cc1nc(-c2ccccn2)sc1C(=O)Nc1ccc(F)cc1	-1	1.1	-3	-7	-2	-1	4	-1.5
CCCCN(CCCC)C(=O)c1cc2c(=O)n3ccccc3nc2s1	-1	-1.5	.	6	8	-3	19	-0.6
COc1ccc(N2C(N)=NC(N)=NC23CCCC3)cc1	1	-0.3	8	1	-2	0	-2	-0.3
CSc1nc(Nc2cccc(C)c2)c(C#N)c(-c2ccccc2)n1	1	1.0	.	-1	4	-1	6	1.1
COc1ccc(-c2cnn(C3CCS(=O)(=O)C3)c2N)cc1 (stereo not drawn)	1	-0.3	6	-3	-3	-8	-3	0.1
CC1CCCN(C(=O)C2CC(=O)N(c3ccc(Cl)cc3)C2)C1 (stereo not drawn)	6	0.4	1	2	-8	0	-10	0.0
Cc1cc(N2C(=O)C(O)=C(C(=O)c3ccco3)C2c2ccccc2F)no1 (stereo not drawn)	1	-0.4	16	-4	9	17	-3	-0.4
CCS(=O)(=O)c1ncc(Cl)c(C(=O)Nc2ccc(S(=O)(=O)N3CCCC(C)C3)cc2)n1 (stereo not drawn)	1	0.1	9	-11	-36*	3	7	-0.1
FC(F)(F)c1cccc(CN2CCCCCC2)c1	2	0.3	-5	0	-7	7	-17	-0.8
Nc1c(C(=O)Nc2ccccc2)sc2nc(-c3ccco3)ccc12	4	2.0	3	-3	-8	-7	0	1.0
CCOC(=O)C1=NN(c2ccccc2)C2C(=O)N(c3ccccc3OC)C(=O)C12 (stereo not drawn)	5	-1.2	-2	3	11	0	3	-0.6
O=C1Nc2c(c(=O)[nH]c(=O)n2-c2ccccc2)C1(NS(=O)(=O)c1ccc(Cl)cc1)C(F)(F)F (stereo not drawn)	1	0.9	.	-5	2	-3	-5	1.5
C=CCn1c(CCNC(=O)c2ccccc2F)nnc1SCc1nc2ccccc2c(=O)[nH]1	2	0.0	-5	-1	5	-7	-5	1.1
Cc1cc(F)ccc1S(=O)(=O)Nc1nc2ccccc2nc1Cl	2	0.5	-9	-1	-5	-2	10	-0.4
COc1cc(C(c2nnnn2C2CCCC2)N2CCc3ccccc3C2)ccc1O (stereo not drawn)	0	-0.2	-6	-1	2	3	17	0.3
Cc1cccc(Nc2nn3c(=O)c4ccccc4nc3s2)c1	1	0.2	0	-2	3	3	-4	0.8
CCOC(=O)C1CCN(C(=O)c2cc3c(=O)n4ccccc4nc3n2C)CC1	2	-0.2	5	2	5	6	-1	-0.5
Cc1ccc(-c2nnc3c4ccccc4c(C)nn23)cc1NC(=O)c1cccc(Br)c1	-1	-0.4	.	-5	0	8	-5	-0.4
Cc1ccc(C(=O)C2=C(O)C(=O)N(Cc3cccnc3)C2c2ccc(Cl)c(Cl)c2)o1 (stereo not drawn)	3	-0.8	-18	8	8	-1	8	-1.0
CC(C)C[C@H](NC(=O)OC(C)(C)C)C(=O)N1CCC(C(=O)O)CC1	0	0.3	-16	1	5	5	-2	-1.6
CC(=O)Nc1ccc(NC(=O)CN2C(=O)CN(C)C(=O)c3ccccc32)cc1	1	0.3	.	-3	16	-8	.	0.5
CSc1ncccc1C(=O)N(C)CC(=O)Nc1ccc(Cl)c(C(F)(F)F)c1	0	0.6	-22	9	3	-3	9	0.3
Cc1nc2ccc(Br)cc2c2c1CC(CO)O2 (stereo not drawn)	0	0.3	-18	1	17	-11	-4	-0.2
CCOc1ccc(NC(=O)c2cnsn2)cc1	0	0.2	-2	5	7	1	16	-0.7
CCc1nc(NCC2CCCN2CC)c2nnn(Cc3ccccc3F)c2n1 (stereo not drawn)	5	2.1	-17	-3	12	3	-10	0.5

Ten compounds out of the list, ordered by count of non-hydrogen atoms, low to high:
SMILES	D1 agonist	TRHR agonist	D2 antag	D1 potentiator	D1 antag	TRHR PAM	D2 potentiator	D2 agonist
CCOc1ccc(NC(=O)c2cnsn2)cc1	0	0.2	-2	5	7	1	16	-0.7
O=C(Nc1ccc2oc(=O)ccc2c1)c1cccnc1Cl	1	0.3	-2	-6	-4	3	-4	-0.1
Cc1nc(-c2ccccn2)sc1C(=O)Nc1ccc(F)cc1	-1	1.1	-3	-7	-2	-1	4	-1.5
Nc1c(C(=O)Nc2ccccc2)sc2nc(-c3ccco3)ccc12	4	2.0	3	-3	-8	-7	0	1.0
CCCCN(CCCC)C(=O)c1cc2c(=O)n3ccccc3nc2s1	-1	-1.5	.	6	8	-3	19	-0.6
CCOC(=O)C1=NN(c2ccccc2)C2C(=O)N(c3ccccc3OC)C(=O)C12 (stereo not drawn)	5	-1.2	-2	3	11	0	3	-0.6
CCc1cc2c(cc3c(=O)n(CC(=O)NCCCN4CC(C)CC(C)C4)ncn32)s1 (stereo not drawn)	1	-0.7	-11	-2	17	7	15	0.1
CCS(=O)(=O)c1ncc(Cl)c(C(=O)Nc2ccc(S(=O)(=O)N3CCCC(C)C3)cc2)n1 (stereo not drawn)	1	0.1	9	-11	-36*	3	7	-0.1
COc1cccc(C2C(C(=O)c3cc4ccccc4o3)=C(O)C(=O)N2c2cc(C)on2)c1 (stereo not drawn)	3	0.7	-25	-1	-11	19	4	-1.7
C=CCn1c(CCNC(=O)c2ccccc2F)nnc1SCc1nc2ccccc2c(=O)[nH]1	2	0.0	-5	-1	5	-7	-5	1.1

(cont.)
SMILES	D1 agonist	TRHR agonist	D2 antag	D1 potentiator	D1 antag	TRHR PAM	D2 potentiator	D2 agonist
CC(=O)Oc1cccc(C(=O)Nc2cccc(C(=O)Nc3ccccc3C(=O)O)c2)c1	4	0.3	5	-2	-3	2	6	1.5
Cc1nc(SCCC(=O)O)c2ccccc2n1	1	0.3	-1	-4	-2	9	-4	0.3
Cn1c(=NC(=O)CSCC(=O)N2CCOCC2)sc2ccccc21	-1	0.2	-11	5	2	-1	0	0.4
CCC(OC(=O)c1nsc(Cl)c1Cl)C(=O)NCC1CCCO1 (stereo not drawn)	1	-0.3	2	1	2	4	1	-0.2
Cc1cccc(-n2c(=S)[nH]c3c(oc4ccccc43)c2=O)c1	1	0.3	-8	0	0	-1	-6	0.9
COc1ccc(Cn2ccc3nc(C)c(C(=O)Nc4ccc(OC)cc4OC)cc3c2=O)cc1	3	-0.5	.	-1	15	7	2	-0.7
C#CCNc1nc(CC)nc2c1nnn2Cc1ccccc1F	4	0.4	4	0	10	-1	14	0.4
CC(C)(C)n1nnnc1C(c1ccc2ncccc2c1)N1CCSCC1 (stereo not drawn)	1	-0.6	-1	9	7	9	10	-3.2
CCC(C(=O)Nc1cc(C(F)(F)F)ccc1Cl)n1nc(C)c2sc3ccccc3c2c1=O (stereo not drawn)	16	0.4	.	1	13	1	8	0.1
Cc1nnc(NC(=O)CSc2ccc([N+](=O)[O-])cn2)s1	2	0.4	-6	-6	-8	6	4	2.3
CCCCCC(O)(c1ccc(OCC)cc1)C(CN1CCOCC1)c1ccccc1 (stereo not drawn)	6	1.7	-24	-3	4	5	1	0.4
CCOC(=O)N1CCN(C(=S)NC(=O)C2CCCC2)CC1	1	-0.5	-21	-6	10	1	-12	1.0
COc1ccc(OCCNC(=O)CSc2ccc(C(F)(F)F)cc2[N+](=O)[O-])cc1	3	0.2	27	0	24	-14	-2	1.4
Cc1nc2nc(SCC(=O)NC(C)c3ccccc3)nn2c(C)c1Cc1c(F)cccc1Cl (stereo not drawn)	4	-0.3	.	0	-9	1	.	-0.5
COC(=O)CSc1nc(NC(C)=O)nc(C)c1Br	-2	0.2	-8	3	2	3	10	0.2
CC(=O)c1ccc(NC(=O)CSc2ccc3nnc(-c4cccnc4)n3n2)cc1	5	-0.3	2	-2	-22	-6	-6	-0.6
O=C(Nc1ccc2oc(=O)ccc2c1)c1ccco1	3	0.3	.	-1	14	0	.	.
Cn1c(CCN2CCCCC2)nc2cc([N+](=O)[O-])ccc21	2	0.0	17	1	3	-6	5	-0.1
COc1ccc(NC(=O)CSc2ccc3nnc(-c4cccnc4)n3n2)cc1	1	0.5	-6	2	6	5	-22	-0.7
Cc1sc2ncnc(SCC(=O)NCC3CCCO3)c2c1C (stereo not drawn)	1	-0.3	.	-4	-16	7	.	.
O=C(O)c1cc(-c2cccnc2)nc2ccc(Br)cc12	6	-0.4	10	-4	3	6	-3	0.2
CCOc1ccc(C2C(C(=O)c3ccc(C)o3)=C(O)C(=O)N2c2nc(C)c(C(=O)OC)s2)cc1 (stereo not drawn)	5	-0.2	1	-2	3	3	-32	0.0
Cc1cc(NC(=O)c2cc(-c3ccccn3)nc3c(Cl)cccc23)no1	1	-0.2	-3	2	-5	-1	0	0.1
COc1ccc(OC)c(-n2c(-c3cc(-c4ccccc4)n[nH]3)n[nH]c2=S)c1	1	0.3	-13	2	-15	-1	10	-0.3
Cc1cc(-c2[nH]nc3c2C(c2cccc(O)c2)C(C#N)=C(N)O3)c(C)s1 (stereo not drawn)	2	0.6	3	-13	5	-11	-9	-0.2
Cc1ccc(CNC(=O)C2CN(S(C)(=O)=O)c3cc(Cl)ccc3O2)cc1 (stereo not drawn)	-2	0.0	-10	0	4	1	-5	-0.1
O=C(C1CC(=O)N(c2ccc(F)cc2)C1)N1CCOCC1 (stereo not drawn)	2	0.2	-6	-9	1	1	.	2.1
c1ccc(-n2c(SCC3CCCCO3)nnc2-c2cnccn2)cc1 (stereo not drawn)	1	-0.4	10	1	4	7	-11	0.3
CCc1cc(C(=O)c2ccc(OC)cc2)c(NC(=O)CCC(=O)O)s1	0	-0.4	0	-2	5	1	6	-0.1
COc1ccc(C(=O)CSc2ccc3nnc(-c4cccnc4)n3n2)cc1	2	0.2	3	0	26	5	8	0.1
Cc1cccc(-c2cc(C(=O)Nc3ccc4c(c3)OCCO4)c3ccccc3n2)c1	5	1.6	-10	-6	6	3	-8	0.2
COc1cccc(NC(=O)Cn2c(=O)n(-c3ccc(Cl)cc3)c(=O)c3sc4ccccc4c32)c1	4	0.8	.	0	3	14	15	0.9
Cc1c(N2C(=O)C(=O)/C(=C(/O)c3ccc(Br)cc3)C2c2cccnc2)c(=O)n(-c2ccccc2)n1C (stereo not drawn)	-2	0.7	-7	2	28	1	1	-0.3

An excerpt; rates above refer to the full screens.
